# Compound activity (PubChem)
# Ecoli rRNA inh: inhibits bacterial ribosomal RNA function over humanized ribosomes; E. coli WT GFP vs humanized-ribosome RFP mutants, fluorescence, 24 h; hits give low values; DMSO median 0, no signal -100; GFP signal change (wild-type ribosome), % (no concentration beside the values); 350,000 tested, 1.6% active; AID 720706;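 active = significant combined selectivity score with lowered wild-type GFP, culture density cut under 30%, mutant RFP and density less affected; inactive = any of these conditions unmet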; note: one replicate is shown; some compounds called inactive have numbers as strong as hits
# UCH37 inh: human UCH37 deubiquitinating enzyme inhibition. inhibition, % (no concentration beside the values). AID 588478. 330,000 tested, 0.33% active. purified proteasome/UCH37, Ub-AMC cleavage fluorescence;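 active = mean of two replicates above 20%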;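 note: 0% = compound-free wells with enzyme and 100% = wells lacking proteasome; stock transfer was 100 nL into about 20 µL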
# Target sequence (Q9Y5K5 whole entry, looked up): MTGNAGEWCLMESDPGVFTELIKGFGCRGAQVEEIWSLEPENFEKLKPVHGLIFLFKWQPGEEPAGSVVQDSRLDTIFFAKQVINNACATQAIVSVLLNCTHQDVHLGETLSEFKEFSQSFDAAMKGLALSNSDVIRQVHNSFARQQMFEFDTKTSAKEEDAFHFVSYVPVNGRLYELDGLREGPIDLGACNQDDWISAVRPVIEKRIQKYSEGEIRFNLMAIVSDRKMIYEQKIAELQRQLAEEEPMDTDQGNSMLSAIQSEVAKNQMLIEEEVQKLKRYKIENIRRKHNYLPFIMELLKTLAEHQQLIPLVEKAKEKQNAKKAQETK
#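 Material: human UCH37 enzyme supplied as purified proteasome complex / Amount: 0.15 nM proteasome as dispensed / Buffer or medium: pH 7.4 Tris-HCl (50 mM) with ovalbumin, ATP-MgCl2, DTT / Times: preincubation 30 min, reaction 25 min, room temperature / Technique: AMC fluorescence from Ub-AMC cleavage, excitation 355 nm, emission 460 nm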
# B2AR ag: activates human beta-2 adrenergic receptor causing internalization | P07550 | Am2.2-beta2AR cells, FAP receptor internalization, flow cytometry; reference of the scale not given here | response, % (no concentration beside the values) | 340,000 tested, 0.43% active | AID 504454;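 active = response above a set limit, near 3 SD of response in nonfluorescent compounds, cut at about 42% in these data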;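 note: stock transfer was 100 nL into about 11 µL; a reference agonist was the positive control; negative values mostly stem from fluorescent compounds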
# HNF4A DNA FP: change in binding of human HNF4 alpha to DNA; HNF4a-FITC DNA binding, fluorescence polarization, 1 h; activity change, % at 10 µM; 360,000 tested, 0.3% active; in the data active = activity change above about 30%, passing the limit was not always enough;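 note: controls were the assay level and a saturating level of protein; the project sought stronger binding though the title names inhibitors; some compounds called inactive have numbers as strong as hits; positive values seem to mean higher polarization but the record does not say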
# Target sequence (P41235 whole entry, looked up): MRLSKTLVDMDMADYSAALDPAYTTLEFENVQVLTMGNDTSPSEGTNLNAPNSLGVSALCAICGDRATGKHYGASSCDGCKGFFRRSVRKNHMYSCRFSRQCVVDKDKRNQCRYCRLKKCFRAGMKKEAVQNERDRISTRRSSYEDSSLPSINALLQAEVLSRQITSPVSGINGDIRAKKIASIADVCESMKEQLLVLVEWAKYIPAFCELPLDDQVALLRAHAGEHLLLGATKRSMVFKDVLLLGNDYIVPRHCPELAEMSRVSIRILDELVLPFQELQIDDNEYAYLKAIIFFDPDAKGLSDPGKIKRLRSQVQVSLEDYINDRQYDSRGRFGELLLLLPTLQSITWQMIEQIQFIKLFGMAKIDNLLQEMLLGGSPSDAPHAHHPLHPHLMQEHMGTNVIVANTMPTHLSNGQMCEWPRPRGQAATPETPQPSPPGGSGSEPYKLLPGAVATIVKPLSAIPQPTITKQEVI
# FGF22 binding: binders of recombinant human FGF22 by thermal shift. calls only at 9.99 µM. Q9HCT0. 340,000 tested, 1.5% active. AID 651658. SYPRO orange fluorescence; percent of sucrose octasulfate shift, DMSO zero;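 active = melting point raised past a set limit in the mean and every replicate; three in four hits are not shown here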
# Ecoli growth: inhibitors of Escherichia coli growth; OD600, 23 h; hits give low values; OD600 absorbance (test concentration not listed); 330,000 tested, 0.21% active;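 active = OD600 absorbance below the run mean of sample wells minus 3.6 SD, in any replicate, cut at about 0.56 in these data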;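 note: stock transfer was 300 nL into about 60 µL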
# ALR inh: blocks human ALR sulfhydryl oxidase activity; P55789; purified ALR, DTT oxidation, H2O2 HRP-luminol luminescence; inhibition, % (concentration not given with the values); 290,000 tested, 3.8% active; AID 485317;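 active = mean and each replicate at 75% or more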;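 note: stock transfer was 7.5 nL into about 7.5 µL; 0% = neutral wells and 100% = wells with inactivated enzyme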
# Target sequence (P55789 whole entry, looked up): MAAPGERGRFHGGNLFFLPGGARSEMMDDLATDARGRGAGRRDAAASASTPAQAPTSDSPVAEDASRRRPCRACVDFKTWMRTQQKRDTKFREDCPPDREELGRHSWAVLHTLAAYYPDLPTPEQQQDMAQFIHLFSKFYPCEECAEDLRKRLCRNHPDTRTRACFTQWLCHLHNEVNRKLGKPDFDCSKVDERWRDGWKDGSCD
# Ecoli rRNA inh OD600: also measured in Ecoli rRNA inh; calls as there; OD600 change, %; measured here: OD600 growth;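 optical density of the mix in the first replicate; 0 = DMSO median and -100 = no signal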
# Ecoli rRNA inh RFP: recorded beside Ecoli rRNA inh, whose call it bears; RFP signal change, %; measured here: RFP humanized mutant strains;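 first replicate; 0 = DMSO median and -100 = no signal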
# Active calls of the source: *; i = inactive; . = not tested or not shown; & = joins results of further samples. The list is partial; the hit share may differ from the screen's.
# Sequence of screens: Ecoli rRNA inh	Ecoli rRNA inh OD600	Ecoli rRNA inh RFP	UCH37 inh	B2AR ag	HNF4A DNA FP	FGF22 binding	Ecoli growth	ALR inh
CSc1ccc(/C=C/C(=O)OCC(=O)N2CCc3ccccc32)cc1
 : 6	-2	5.5	-7.8	5	3.1	i	0.66	0
COc1ccccc1NC(=O)c1cc(Cl)nc2ccccc12
 : -6	-8	-2.4	6.7	-8	4.3	i	0.69	3
Cc1cc(N2C(=O)C(=O)/C(=C(/O)c3ccc(F)cc3)C2c2cccc(Br)c2)no1 (configuration not stated)
 : .	.	.	11	8	-5.4	.	0.73	12
Cc1c(CN(C)Cc2cn(C)nc2-c2ccccc2F)[nH]c2ccccc12
 : 3	-3	12	1.1	3	-0.7	i	0.61	12
O=C(COc1cccc(NC(=O)c2cccc([N+](=O)[O-])c2)c1)c1ccc(Br)cc1
 : .	.	.	5.2	5	1.7	.	0.7	-4
Cc1cccc(/C=C2\Sc3ccc(C(=O)N4CCOCC4)cc3N(C)C2=O)c1
 : -17	-25	1.8	-3.3	0	3.1	i	0.68	1
O=C(NC1CCCCC1)C(c1cc2ccccc2o1)n1c(=O)c(-c2ccco2)nc2ccccc21 (configuration not stated)
 : 6	7	2.2	.	.	46*	i	.	.
OCCNc1nc2ccccc2n1CCN1CCCCC1
 : .	.	.	-0.9	15	-3.5	.	0.76	-5
Cc1ccc(-n2nc(-c3ccc(N)cc3)cc2N)cc1
 : 4	6	-5.6	6.1	4	-1.2	i	0.75	98*
O=C(Nc1ccc(NC(=O)C2CC2)cc1)c1ccco1
 : 2	19	-1.7	7.8	-11	-0.2	i	0.67	-2
CCOC(=O)[C@]12CCC=C1N(Cc1ccc3c(c1)OCO3)C(=O)[C@H](CC(=O)N1CCCCC1)C2
 : -4	-8	3.3	.	.	0.5	i	.	.
COc1ccc(C(C[N+](=O)[O-])n2nc(C)cc2C)cc1 (configuration not stated)
 : 20	15	1.0	2.1	27	-0.4	i	0.66	.
CC(C)N(Cc1ccccc1)C(=O)Cn1c(=O)cnc2ccccc21
 : 1	9	-1.1	-15	1	-5.9	i	0.64	-4
CCCCOC(=O)CCc1nc2ccccc2[nH]c1=O
 : .	.	.	-25	-3	1.4	.	0.74	-2
Cc1occc1C(=O)N/N=C/c1ccc(N(C)C)cc1
 : 6	4	3.9	.	-4	2.2	.	.	94*
CC(C)N1CCN(Cc2ccoc2)CC1CCO (configuration not stated)
 : 17	12	-1.4	2.2	3	-3.2	i	0.69	0
CCNS(=O)(=O)c1ccc(NC(=S)N2CCc3ccccc32)cc1
 : -20	-17	-0.4	3.5	-3	0.3	i	0.74	-15
COc1ccc(NC(=O)COC(=O)C2CCCCC2)c([N+](=O)[O-])c1
 : .	.	.	3.7	6	1.0	.	0.68	-4
CC1(C)CC(=O)C2=C(C1)N(c1ccccc1)C(=O)CC2c1ccc(O)cc1 (configuration not stated)
 : 2	8	-3.0	0.1	0	2.0	.	0.67	.
CC1Sc2ccc(S(=O)(=O)CCC(=O)Nc3ccc(C(C)C)cc3)cc2NC1=O (configuration not stated)
 : 1	5	-0.5	0.8	6	0.8	i	0.67	-3
O=C(COc1ccc(Cl)cc1)NCc1cn2cc(Cl)ccc2n1
 : 4	6	1.1	2.7	-8	1.5	.	0.68	-8
O=C(NC1CCN(C(=S)Nc2ccc(F)cc2)CC1)c1ccco1
 : 0	13	0.1	1.6	3	3.0	i	0.59	.
CCOC1=C2CN(S(=O)(=O)c3ccc(C)cc3)[C@H](c3ccccc3)C[C@@H]2N(S(C)(=O)=O)[C@H](c2ccccc2)C1
 : 12	10	8.2	.	.	14	i	.	.
O=C(NC1CCN(C(=S)NCCc2ccccc2)CC1)C1CCCCC1
 : 5	-1	-5.9	5.5	-4	0.1	i	0.69	-3
Cc1ccc(CN2CCC(CNC(=O)C3CCCN(c4ncnc5c4nc4n5CCCCC4)C3)CC2)cc1 (configuration not stated)
 : -2	3	0.8	3.9	10	-1.3	i	0.67	-4
CCOC(=O)Cc1csc(NC(=O)c2ccc(NC(C)=O)cc2)n1
 : .	.	.	0.7	20	-0.1	.	0.7	-1
COC(=O)C1(C(=O)OC)C[C@H](/C=C/c2ccccc2)N(Cc2ccccc2OC)[C@@H]1c1cccs1
 : 14&11	16&14	17&8.2	.	.	5.2&15	i	.	.
Cc1cc(C)cc(NC(=O)CC2NCCNC2=O)c1 (configuration not stated)
 : .	.	.	1.4	15	2.4	.	0.67	12
C=CCNC(=O)COc1c(C)ccc(C)c1C
 : -3	-3	-0.5	1.8	3	0.1	.	0.67	-1
COC(=O)Cn1cc([N+](=O)[O-])nc1C
 : 20	11	5.1	2.0	1	3.4	i	0.65	0
CCOC(=O)c1ccc(NC(=S)N2CCCC(C)C2)cc1 (configuration not stated)
 : -15	-19	-1.2	4.3	9	1.1	i	0.66	-8
COc1ccc(-c2nnc(SCC(=O)N3CCCC(C)C3)o2)c(OC)c1 (configuration not stated)
 : -10	-10	3.0	1.1	-8	1.9	i	0.67	-6
O=C(NCc1ccccc1)C1C2C=CC3(CN(Cc4cccnc4)C(=O)C13)O2 (configuration not stated)
 : .	.	.	4.7	-4	0.6	.	0.75	-7
CCc1nnc(NC(=O)CSc2ccc(-c3nc4ccccc4[nH]3)cn2)s1
 : .	.	.	-53	-8	-1.5	.	0.68	-3
Cc1cc(C)c2c3c(sc2n1)C(c1ccccc1)C(C#N)=C(N)O3 (configuration not stated)
 : -4	-3	11	-6.9	6	5.1	i	0.7	5
Cc1cc(C(=O)NCc2cc(C(=O)O)oc2C)c(C)o1
 : .	.	.	1.1	-2	-2.4	.	0.69	-11
O=C(COc1ccc(C(=O)c2ccc(F)cc2)cc1)NCc1ccc(F)cc1
 : 11	0	-3.0	3.7	-5	3.4	i	0.74	.
Cc1cc(N2CCCCC2)nc(NCc2ccccc2)n1
 : .	.	.	.	-9	-1.2	.	.	1
COc1ccc(C2CC(c3ccccc3)Nc3nc(NC(=O)c4cccs4)nn32)cc1 (configuration not stated)
 : .	.	.	0.1	0	0.0	.	0.75	-4
COc1ccc(NC(=O)CCSCCc2ccccn2)cc1OC
 : 7	-4	-2.1	6.4	6	-1.0	i	0.66	-9
CCN1CCc2nc(SCC(=O)Nc3ccc(OC)cc3)c(C#N)cc2C1
 : .	.	.	-0.3	3	-0.3	.	0.72	99*
Cc1ccc2[nH]c(=O)c3cc(C(=O)NCCC(C)C)sc3c2c1
 : -7	-1	4.2	-60	-6	-1.3	i	0.67	-10
O=C(Nc1cc(C(F)(F)F)ccc1N1CCOCC1)C1=COCCO1
 : 14	16	-2.3	3.7	-22	5.4	i	0.69	7
Cc1onc(-c2ccccc2)c1C(=O)N/N=C/c1ccco1
 : 11	3	-1.2	.	-1	5.3	i	.	3
Cc1ccsc1C(=O)N1CC(=O)Nc2ccccc21
 : .	.	.	8.5	7	0.9	.	0.68	0
COc1ccc(C2CC(C(F)(F)F)n3ncc(C(=O)O)c3N2)cc1OC (configuration not stated)
 : .	.	.	-0.2	-4	1.4	.	0.71	.
CCCCCCNS(=O)(=O)c1ccccc1Br
 : -3	-13	-10	1.2	0	-2.1	i	0.67	-8
NC(=O)N/N=C/c1coc2ccc3ccccc3c2c1=O
 : 4	-2	0.1	.	4	-4.0	i	.	-17
Nc1scc2c(C(=O)N/N=C/c3ccc(Cl)cc3)nn(-c3ccccc3)c(=O)c12
 : .	.	.	.	4	-1.0	.	.	-1
Cc1ccc(NC(=O)CS(=O)CC(=O)NC2CCN(Cc3ccccc3)CC2)c(C)c1 (configuration not stated)
 : .	.	.	0.4	-2	13	.	0.71	-4
COC(=O)[C@]12CCCCC=C1N(CCc1ccc(OC)c(OC)c1)C(=O)[C@H](CC(=O)N1CCN(C(=O)C3CC3)CC1)C2
 : 8	7	4.2	.	.	8.2	i	.	.
Cc1cc2oc(=O)cc(CN3CCCCCCC3)c2cc1Cl
 : -6	4	1.8	.	.	1.4	i	.	.
Cc1cc(C)n(CCO)c(=O)n1
 : .	.	.	3.7	-4	-1.1	.	0.62	-6
COc1cc([N+](=O)[O-])c(OC)cc1SCc1n[nH]c(=S)n1-c1ccc(F)cc1
 : -3	-4	-2.5	5.8	-3	5.1	i	0.66	-6
CC(=O)Nc1ccc(NC(=O)COc2cc(O)c3c(c2)OC(C)(C)CC3=O)cc1
 : .	.	.	-0.9	-1	5.4	i	0.73	26
COCc1cc(=O)n2[nH]c(-c3cccc(Br)c3)cc2n1
 : .	.	.	-5.0	1	0.2	.	0.71	-14
CCOCCc1nnc(NC(=O)c2cccc(F)c2)s1
 : .	.	.	3.2	-4	4.0	.	0.75	.
Cc1sc2ncn(CC(=O)NCC(=O)N3CCN(c4ccccc4F)CC3)c(=O)c2c1C
 : 1	4	-3.0	0.0	-9	-3.3	i	0.64	-7
COc1ccc(/C=N/Nc2cc(OC)ncn2)cc1
 : 6	-6	1.0	.	3	4.2	i	.	15
CCc1ccc(N(C(=O)c2ccoc2C)C(C(=O)NC2CCCC2)c2ccc(OC)cc2)cc1 (configuration not stated)
 : .	.	.	0.8	6	-5.7	.	0.72	-1

# Brought forward from above: 2 entries; new compounds follow.
# Sequence of screens: Ecoli rRNA inh	Ecoli rRNA inh OD600	Ecoli rRNA inh RFP	UCH37 inh	B2AR ag	HNF4A DNA FP	FGF22 binding	Ecoli growth	ALR inh
COc1ccc(/C=N/Nc2cc(OC)ncn2)cc1
 : 6	-6	1.0	.	3	4.2	i	.	15
CCc1ccc(N(C(=O)c2ccoc2C)C(C(=O)NC2CCCC2)c2ccc(OC)cc2)cc1 (configuration not stated)
 : .	.	.	0.8	6	-5.7	.	0.72	-1
COc1ccc(C(=O)Nc2nc3ccccc3s2)cc1OC
 : -29	-33	-3.5	-0.5	-1	-2.3	i	0.72	-9
COc1ccc(CCNS(=O)(=O)c2c(N)n(C)c(=O)n(C)c2=O)cc1OC
 : 13	14	-1.1	1.8	1	3.4	i	0.72	-6
COc1cccc(C(=O)Cn2c(=O)n(CC3CCCO3)c(=O)c3ccccc32)c1 (configuration not stated)
 : .	.	.	4.7	-4	2.0	.	0.7	6
CO/N=C/c1cn(-c2ccc(Cl)cc2)nn1
 : 0	-2	0.2	.	-10	0.0	i	.	-16
OC(c1ccccc1)C(NCCNCc1ccccc1)c1ccccc1 (configuration not stated)
 : 1	-6	11	3.4	-1	0.8	i	0.7	.
Oc1ccccc1Nc1ncnc2c1oc1ccccc12
 : .	.	.	-4.7	24	-3.1	.	0.74	0
O=C(CCn1c(=O)oc2ccccc21)N1CCN(c2ccccc2F)CC1
 : .	.	.	6.6	-8	2.1	.	0.7	-7
CC(=O)Nc1ccc(Nc2nc3ccccc3nc2NS(=O)(=O)c2ccccc2)cc1
 : 5	0	0.4	6.9	7	15	i	0.7	98*
CCOC(=O)c1sc(N/N=C/c2cccc(C)c2)nc1C
 : .	.	.	.	-5	-0.8	.	.	-1
O=C(CCN1c2ccccc2Sc2ccccc21)Oc1ccccc1
 : 12	3	4.4	.	-3	-1.6	i	.	9
COc1ccc(-c2cc(C(=O)N/N=C(\C)c3cccnc3)c3cc(C)ccc3n2)cc1OC
 : 1	2	0.2	.	15	5.2	i	.	54
Cc1cc(C)cc(-n2c(SC(C)C(=O)NCc3ccc4c(c3)OCO4)nc3ccccc3c2=O)c1 (configuration not stated)
 : .	.	.	6.1	-2	-2.5	i	0.67	-14
CCc1sc(C(=O)NC2CCN(C)CC2)cc1Br
 : .	.	.	9.2	0	-0.2	.	0.65	1
